YopH PTP inh: YopH tyrosine phosphatase inhibitors, primary screen, biochemical, fluorescence Ex485/Em525; inhibition, %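 (about 10 µM by stock and volumes)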; AID 898, 2007; 140,000 compounds, 0.16% hits;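 active = inhibition of 50% or more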;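 also: controls were vehicle for no effect and minimum signal wells for full effect; inactives centre near -20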
Mtb growth: M. tuberculosis H37Rv growth inhibitors, H37Rv strain (AID 1626). M. tuberculosis H37Rv growth inhibition; higher % means a stronger effect. inhibition, % at 10 µM; hits with a dose series show IC50 in µM. 220,000 compounds, 0.95% hits;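 active = confirmed in a dose series; inconclusive = inhibition above 80% but not taken into the dose series; inactive = below 80% or under 30% at every dose of the series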;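 also: bacteria incubated seven days before Alamar blue readout; 0% = bacteria only wells and 100% = bacteria with antibiotic wells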
RecA splice inh: Mtb RecA intein splicing inhibitors, primary screen, biochemical, fluorescence, HTS; Protein RecA (Mycobacterium tuberculosis (strain ATCC 25618 / H37Rv)), P9WHJ3; cell-free RecA intein splicing; inhibition, %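 (about 9 µM by stock and volumes)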; 290,000 compounds, 0.75% hits; AID 2221, 2009; in the data active = inhibition above about 30%; inconclusive = no clear call, values can overlap the other calls;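 also: 0% = vehicle wells and 100% = reference inhibitor control wells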
Target sequence (P9WHJ3 whole entry, looked up, canonical isoform): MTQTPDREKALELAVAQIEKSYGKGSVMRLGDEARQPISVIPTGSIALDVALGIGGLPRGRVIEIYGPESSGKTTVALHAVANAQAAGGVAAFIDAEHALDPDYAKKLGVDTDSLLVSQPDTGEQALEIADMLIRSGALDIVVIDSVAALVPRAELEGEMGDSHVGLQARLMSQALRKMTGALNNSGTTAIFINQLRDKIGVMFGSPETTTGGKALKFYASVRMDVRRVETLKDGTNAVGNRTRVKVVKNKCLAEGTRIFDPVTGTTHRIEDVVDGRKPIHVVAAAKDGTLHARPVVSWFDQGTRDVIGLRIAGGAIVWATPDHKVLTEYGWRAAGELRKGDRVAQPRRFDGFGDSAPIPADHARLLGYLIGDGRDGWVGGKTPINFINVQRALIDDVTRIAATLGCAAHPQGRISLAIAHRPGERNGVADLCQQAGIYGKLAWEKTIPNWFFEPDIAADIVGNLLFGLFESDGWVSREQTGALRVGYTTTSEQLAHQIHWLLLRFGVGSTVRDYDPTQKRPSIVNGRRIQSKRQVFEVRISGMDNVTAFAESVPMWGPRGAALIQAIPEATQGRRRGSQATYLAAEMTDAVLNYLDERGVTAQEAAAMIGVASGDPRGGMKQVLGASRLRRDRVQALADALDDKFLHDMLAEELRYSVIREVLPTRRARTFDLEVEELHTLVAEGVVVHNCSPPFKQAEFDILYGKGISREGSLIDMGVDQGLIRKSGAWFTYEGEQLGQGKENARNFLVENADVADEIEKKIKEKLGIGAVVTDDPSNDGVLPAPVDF
Arbovirus anti: antivirals against arbovirus infection, primary screen, cell-based, full library, 10K replicate subset. inhibition, % at 10 µM. AID 1251, 2008. 200,000 compounds, 0.37% hits. arbovirus infection cell-based antiviral screen;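 active = inhibition from about 30%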;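 also: bluetongue infection of BSR cells; cell survival read as ATP light after 72 h; 0% = infected wells without compound and 100% = uninfected wells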
Mtb betalactam: beta-lactam sensitization of Mtb H37Rv, H37Rv | M. tuberculosis H37Rv growth with meropenem, percent inhibition; hits of this screen are not shown here | inhibition, % at 25 µM | 330,000 compounds, 0.27% hits;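 active = about 74% or more and at least 40 points above the plate without the antibiotic, then above 30% in a dose series; inconclusive = first-round hits that could not be retested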;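 also: growth measured after seven days incubation then overnight dye step; 0% = bacteria only wells and 100% = bacteria with antibiotic; twin plates without the antibiotic show which effects depend on it; some results filed as inactive read as strong as hits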
Arbovirus anti repeat: also measured in Arbovirus anti; calls as there; inhibition, %; measured here: 10K subset replicate screen; many hits read low in the repeat;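 first of two repeat runs on a subset; 0% = infected and 100% = uninfected wells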
Numbers without * were called inactive; ? = inconclusive; nt = not tested or not shown. A portion of the library. The share of hits here may be higher or lower than overall.

SMILES	YopH PTP inh	Mtb growth	RecA splice inh	Arbovirus anti	Mtb betalactam	others
Cc1ccc(CN2CCC(Oc3cccc(C(=O)NCc4cccnc4)c3)CC2)o1	nt	nt	0.5	nt	0
O=C(O)CCN1Cc2ccccc2C1=O	-1	-20%	11	9	-6
COc1ccc(NC(=O)CCN2CCN(S(=O)(=O)c3cc(Cl)ccc3OC)CC2)cc1	-30	3%	2.1	-4	-8
COC(=O)Cc1cc(OC)c(OC)cc1S(=O)(=O)N(C)C	nt	3%	2.9	-2	-2
COc1ccccc1CN(Cc1nc2ccccc2c(=O)[nH]1)C(=O)Nc1cccc(C)c1	-47	4%	2.1	3	-3
O=C(NCc1ccc(Cl)cc1)c1ccccc1CCc1ccccc1	-22	8%	-1.0	1	61
COc1ccc(C(=O)NCCc2ccc(F)cc2)cc1OC	nt	4%	-1.7	2	-7
O=C(O)CC1CCS(=O)(=O)C1 (stereo not drawn)	-21	5%	-1.5	5	4
Cc1noc(C)c1C(=O)N1CC(C)OC(C)C1 (stereo not drawn)	-15	-7%	-4.6	1	-3
C=CCn1c(-c2ccc3ncccc3c2)n[nH]c1=S	nt	-9%	0.4	nt	-6
C/C(Cc1ccccc1)=N\NC(=O)CNC(=O)c1ccc(F)cc1	nt	nt	-2.5	nt	-5
CNC(=O)NC(=O)C(C)OC(=O)CCCc1nc2ccccc2s1 (stereo not drawn)	nt	6%	1.3	16	-3
COc1cc(NC(=O)CNC(c2ccccc2)c2ccccc2)cc(OC)c1OC	nt	nt	4.0	nt	0
CN(C)S(=O)(=O)c1ccc2c(c1)nc(CCC(=O)Nc1ccc3c(c1)OCO3)n2C	-21	2%	-2.5	-16	0
COc1ccccc1S(=O)(=O)Cc1ccc(C(=O)NCC2CCCO2)o1 (stereo not drawn)	nt	-3%	-1.6	3	0
CO/N=C/c1ccc(N2CCN(C(=O)c3ccc(F)cc3)CC2)c([N+](=O)[O-])c1	-21	-3%	-0.9	0	4
CCOc1ccc(C(=O)c2cc([N+](=O)[O-])ccc2N2CCOCC2)cc1	-25	-4%	2.1	-16	8
CCC(C)(C)NC(=O)CN(Cc1cccs1)C(=O)CNS(=O)(=O)c1ccc(F)cc1	nt	-9%	1.0	2	-7
COc1ccc2c(c1)C(=C(C#N)C#N)C(=O)N2CCc1ccccc1	nt	-1%	61*	nt	-7
Cc1cc(NC(=O)c2c(Cl)cccc2Cl)no1	nt	4%	-1.7	-3	7

Gathered by group, the entries above with a furan ring, fused or not (2)
SMILES	YopH PTP inh	Mtb growth	RecA splice inh	Arbovirus anti	Mtb betalactam	others
Cc1ccc(CN2CCC(Oc3cccc(C(=O)NCc4cccnc4)c3)CC2)o1	nt	nt	0.5	nt	0
COc1ccccc1S(=O)(=O)Cc1ccc(C(=O)NCC2CCCO2)o1 (stereo not drawn)	nt	-3%	-1.6	3	0

Next part:
SMILES	YopH PTP inh	Mtb growth	RecA splice inh	Arbovirus anti	Mtb betalactam	others
Nc1nc2n(n1)C(c1cccc(Br)c1)CC(c1ccc(F)cc1)N2 (stereo not drawn)	-6	-1%	2.4	2	?	Arbovirus anti repeat=3
COc1cccc(CNc2ccc([N+](=O)[O-])cc2Cl)c1O	nt	5%	-0.4	6	4
CCOC(=O)N(C)OC(=O)Nc1ccc(Cl)c(Cl)c1	-43	53%	nt	25	53	Arbovirus anti repeat=8
C=C(C)CNC(=S)N/N=C/c1ccc([N+](=O)[O-])cc1	nt	6%	-0.5	11	-7
CCCNCc1cc(OC)c(OCCC)cc1Cl	-18	-4%	-0.4	2	9
Cc1cc(=O)[nH]c(N/N=C/c2c(O)n(-c3ccccc3)c(=O)c3ccccc23)n1	-22	2%	-4.3	-3	nt
Cc1ccc(-c2nc3ccccc3c(=O)n2CCN2CCOCC2)cc1	-16	6%	3.5	4	3
Cc1cc(C)c(OCCCCn2cnc3ccccc3c2=O)c(C)c1	-18	4%	0.9	12	-5
COc1ccc(/C=C/C(=O)O)cc1S(=O)(=O)Nc1ccc2c(c1)OCO2	nt	-13%	-1.7	nt	-5
O=C(COC(=O)c1ccccc1Nc1ccccc1)NCc1ccccc1	-28	9%	-7.7	7	2
CC(=O)N1CC(C)Oc2ccc(S(=O)(=O)Nc3ccc(Cl)cn3)cc21 (stereo not drawn)	nt	nt	-0.5	nt	4
Cc1ccc(S(=O)(=O)Nc2cc(C(C(=O)OC(C)C)C(=O)C(F)(F)F)c(O)c3ccccc23)c(C)c1 (stereo not drawn)	-31	-10%	24	-19	7
COC(=O)c1cc(S(=O)(=O)NCc2ccc(Br)cc2)c[nH]1	nt	nt	-0.7	nt	26
O=C(NC1CCCC1)c1cccc(Cl)c1	nt	4%	0.4	-7	-3
CCOC(=O)c1c(-c2ccc(C)cc2)csc1NC1=NS(=O)(=O)c2ccccc21	-19	-8%	-1.4	-3	3
O=c1cc(O)c(-c2ccccc2Cl)c(Cl)[nH]1	-18	-5%	-1.6	4	-1
O=C(CCCN1C(=O)c2ccccc2C1=O)Nc1nc2ccccc2[nH]1	nt	-4%	-1.9	nt	-3
Nc1cccc2cnccc12	38	-10%	nt	-2	9
O=[N+]([O-])c1ccc(/C=N/N=C/c2ccc([N+](=O)[O-])o2)o1	nt	?	nt	-34	nt
Cc1cc(C(=O)Nc2cccc3ccccc23)co1	nt	nt	4.0	nt	40

Some of these compounds in order of molar mass, low to high.
SMILES	YopH PTP inh	Mtb growth	RecA splice inh	Arbovirus anti	Mtb betalactam	others
Nc1cccc2cnccc12	38	-10%	nt	-2	9
O=C(NC1CCCC1)c1cccc(Cl)c1	nt	4%	0.4	-7	-3
Cc1cc(C(=O)Nc2cccc3ccccc23)co1	nt	nt	4.0	nt	40
O=C(CCCN1C(=O)c2ccccc2C1=O)Nc1nc2ccccc2[nH]1	nt	-4%	-1.9	nt	-3

Later entries
SMILES	YopH PTP inh	Mtb growth	RecA splice inh	Arbovirus anti	Mtb betalactam	others
Cc1ccc(S(=O)(=O)N/N=C2/CC(c3ccccc3)Oc3ccccc32)cc1 (stereo not drawn)	16	8%	7.1	9	5
CC(C)(C)N1CSC(=S)N(Cc2ccccc2)C1	nt	-4%	-0.3	2	76
CN(C)c1c(-c2ccccc2)cc(-c2ccccc2)[nH]c1=O	nt	-3%	-8.6	nt	nt
O=[N+]([O-])c1ccc(Sc2ncc3ccccn23)nc1	nt	-6%	-1.2	nt	10
Cc1ccc(C)c(N2C(=O)CC(N3CCN(Cc4ccc5c(c4)OCO5)CC3)C2=O)c1 (stereo not drawn)	-34	-8%	-1.6	4	1
CCOc1ccc(-n2c(SCC(=O)c3c(N)n(C)c(=O)n(C)c3=O)nnc2-c2cccnc2)cc1	-26	-6%	-2.9	1	1
CC(C(=O)N/N=C/c1ccc(N(C)C)c(Br)c1)N(c1ccccc1)S(C)(=O)=O (stereo not drawn)	-69	3%	nt	1	0
Nc1nnc(CC(=O)N/N=C\c2cc([N+](=O)[O-])ccc2O)s1	-42	0%	1.1	-10	11
O=C(NCc1nnc(SCC(=O)N2CCCC2)o1)c1cccc(C(F)(F)F)c1	nt	nt	1.5	nt	?
O=C(CSc1nc2ncccc2[nH]1)c1ccc2c(c1)OCO2	nt	-4%	-0.3	nt	5
COc1ccc(OC)c(N(CC(=O)NCCSc2ccccc2)S(C)(=O)=O)c1	-32	-6%	5.0	6	-2	Arbovirus anti repeat=-3
Cc1cc(=O)c2n(Cc3ccc(Cl)cc3)nc[n+]2[nH]1	-38	3%	nt	4	7
Cc1cc(Cl)ccc1NC(=S)N1CCC(C(N)=O)(N2CCCCC2)CC1	-17	-3%	-1.3	6	-5
COC(=O)c1ccccc1NC(=S)NC(=O)COc1ccccc1	-27	2%	-2.4	13	-9
O=C(Nc1cccc(S(=O)(=O)Nc2ccc(Cl)cc2)c1)c1ccc2c(c1)OCCO2	-26	9%	11	-12	31
Cc1cc2nc3n(c2cc1C)CC1CC(C(=O)NCc2cccc(C(F)(F)F)c2)N(C)C31 (stereo not drawn)	nt	-5%	-0.1	nt	-1
COc1ccc(-c2nnnn2C(C)C)cc1S(=O)(=O)Nc1ccccc1	nt	-7%	-2.4	nt	-3
Clc1ccc(C2=CSC3=Nc4cccc5cccc(c45)N23)cc1	76*	5%	15	-8	93
CN(C)c1ccc(CNC23CN4CN(CN(C4)C2)C3)cc1	-11	-6%	-5.1	3	-5
O=C(NCCc1ccc(C(F)(F)F)cc1)C1COc2ccccc2O1 (stereo not drawn)	nt	nt	-0.6	nt	4
N=C(N)SCc1nc2ccccc2c(=O)n1-c1ccccc1Cl	-9	2%	4.5	3	-1
O=C(NCCCO)C(=O)NCc1ccccn1	nt	2%	0.5	7	-7
C=CCOc1ccccc1/C=c1\sc2nc(-c3oc4ccccc4c3C)nn2c1=O	-27	-7%	-0.4	nt	-9
CCOc1cccc(N(C(=O)CNC(=O)c2ccco2)C(C(=O)NCC2CCCO2)c2ccccc2)c1 (stereo not drawn)	nt	nt	3.6	nt	1
Cc1cc(C)c2c(n1)nn1c(C)c(CCC(=O)NCc3ccco3)c(C)nc21	-36	7%	-3.0	6	1	Arbovirus anti repeat=0
CC(C)(C)c1ccc(C2=NC(=O)C(CC(=O)O)S2)cc1 (stereo not drawn)	nt	-1%	-15	nt	-8
Cc1ccc(C)c(N2CCN(C(=O)c3ccc(Cn4c(=O)[nH]c5ccccc5c4=O)cc3)CC2)c1	-22	65%	13	-12	99
O=C(NCCN1CCOCC1)c1cccc(Br)c1	nt	nt	-0.7	nt	44
O=C(NC1CCCCC1)C(=S)N1CCCC1	nt	4%	-1.5	9	2
Clc1ccccc1OCCn1nnc2ccccc21	nt	nt	0.9	nt	-7
Cc1ccc(C2CC(=O)C(C=NCCN3CCN(CC(=O)Nc4cc(C)cc(C)c4)CC3)=C(O)C2)cc1 (stereo not drawn)	nt	1%	-1.9	-1	nt
CCCCCC/C(C)=C1/SC(=S)NC1=O	4	4%	6.5	16	10
CC(=O)Nc1ccc(/C=N/Nc2nc3ccccc3[nH]2)cc1	-6	-1%	nt	-6	3
CCCC(C)C1(CC)C(=O)NC(=O)N=C1N (stereo not drawn)	-4	0%	-0.2	-13	0
N#Cc1ccc(/C=C/C(=O)c2ccc3c(c2)OCO3)cc1	nt	>100µM*	8.8	-5	71
CCCCNC(=O)C1CCCNC1=O (stereo not drawn)	8	-1%	-3.1	6	1
CCCCOC(=O)c1ccc(NC(=O)C(=O)NCCN(C)C)cc1	nt	15µM*	-0.4	nt	92
COC(=O)C(O)(CC(=O)Nc1ccc(C)c(F)c1)C(F)(F)F (stereo not drawn)	-11	-11%	-2.9	8	3
COc1cccc(/C=N/NC(=O)Cn2nc(C)c([N+](=O)[O-])c2C)c1O	-11	-11%	-0.1	-13	-4
CC1CCCC(NC(=O)Cc2ccc(Br)cc2)C1C (stereo not drawn)	-34	-14%	0.2	-2	2
CSC1=C(C#N)C(c2ccc(C(C)C)cc2)CC(=O)N1 (stereo not drawn)	nt	2%	0.3	12	-5	Arbovirus anti repeat=4
O=C(CSc1ccccc1)N1CCN(S(=O)(=O)c2ccccc2F)CC1	nt	nt	9.0	nt	1
CCOC(=O)c1ccc(NC(=O)CN2C(=O)C(=O)N(CC(C)C)C2=O)cc1	-22	<0.2µM*	-0.7	-6	98
COc1ccccc1Cn1c(=S)[nH]c2cc(C(=O)N3CCCC3)ccc2c1=O	nt	nt	-6.2	nt	2
O=C(Nc1ccc(N2CCCC2)c(Cl)c1)c1ccc(Br)o1	-39	77%	6.8	4	99	Arbovirus anti repeat=-1
OCc1c[nH]c(=S)n1CCOc1cccc(C(F)(F)F)c1	nt	nt	0.7	nt	-5
COCCn1c(SCc2ccccc2)nc2c1c(=O)[nH]c(=O)n2C	nt	nt	-1.1	nt	-1
COc1ccc(C(=O)NC2CC2)cc1OC1CCN(Cc2cc(C)c(C)cc2C)CC1	nt	nt	0.0	nt	-5
O=C(Nc1cnc2ccccc2c1)c1cccnc1	-35	8%	0.1	-4	1	Arbovirus anti repeat=-8
C=CCn1c(SCC(=O)Nc2ncc(Cc3cc(C(F)(F)F)ccc3Cl)s2)nnc1-c1ccncc1	-5	-11%	1.1	9	23

The list goes on:
SMILES	YopH PTP inh	Mtb growth	RecA splice inh	Arbovirus anti	Mtb betalactam	others
Cc1cc(C)nc(Nc2n[nH]c(COc3ccccc3)n2)n1	-42	-4%	0.0	-5	-14
CCOc1ccccc1NC(=O)C(CC)Sc1nc2ccncc2[nH]1 (stereo not drawn)	nt	nt	-0.7	nt	0
COc1ccc(C2Nc3ccccc3C(=O)N2c2ccccc2)cc1CN1CCOCC1 (stereo not drawn)	nt	7%	-5.0	-4	-5
O=C(NCCc1ccco1)C(=O)NCC1OCCCN1S(=O)(=O)c1ccccc1 (stereo not drawn)	nt	nt	2.0	nt	-2
C=C(C)CSc1nc2ncccc2[nH]1	-56	-9%	1.0	5	-7
